# AID504770: E. coli YBA685 growth inhibition, screen for V. cholerae RctB inhibitors. E. coli YBA685 rctB-dependent plasmid, OD600 growth, 3 h; hits give low values. z-score (test concentration not listed). 130,000 compounds, 0.27% hits;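 active = z-score under -2 on both plates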;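 also: wells of about 30 µL received 100 nL stock; score is relative to mean and SD of the test wells; the first replicate is given; strong numbers were not always called active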
# CapD inh: inhibitors of Bacillus anthracis CapD enzyme. 140,000 compounds, 0.23% hits. purified CapD enzyme, fluorescence intensity read-out; hits give low values; some hits fall short of the stated cut. AID 492967. z-score (test concentration not listed);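 active = z-score under -4 in either of two replicates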;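 also: stock transfer was 100 nL into about 40 µL; score is relative to mean and spread of the plate; one replicate is shown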
# * hit, by the source's call; x = not tested or not shown.
SMILES,AID504770,CapD inh
COc1ccc(CCNC(=O)CSc2nc(=O)[nH]c3c2CCCC3)cc1OC,-0.7,x
COc1ccc(C2C(C#N)(C#N)C2(C#N)C#N)cc1,0.05,-0.16
NC(=O)c1ccc(NC(=O)c2cc3ccccc3oc2=O)cc1,-1.5,x
Cn1c(=O)c2cc(N)cnc2n(C)c1=O,0.7,x
CCOc1ncccc1C(=O)O,-0.45,x
CN(C)c1ccc(/C=N/N)cc1,0.3,0.53
Cc1cccc(NC(=O)CCN2C(=O)/C(=C\c3ccccc3)SC2=S)c1,0.45,-0.38
CCC(C)NCc1nc(N)nc(Nc2ccccc2C)n1 (stereo not given),0.15,x
CCSc1nnc(NC(=O)CSc2nnc(Cc3cccn3C)n2-c2ccc(F)cc2)s1,0.25,1.3
Cc1ccc2c(c1)N(C(=O)CCC(=O)N1CCC3(CC1)OCCO3)CC(C)O2 (stereo not given),-0.95,-1.5
O=C(NC1CCCC1)c1nn2c(C(F)(F)F)cc(-c3ccco3)nc2c1Br,x,-0.16
O=S(=O)(c1ccc(F)cc1F)N1CCN(c2ccccc2Cl)CC1,x,0.59

# Exported with bars between the fields: 7 of the compounds above.
smiles | AID504770 | CapD inh
NC(=O)c1ccc(NC(=O)c2cc3ccccc3oc2=O)cc1 | -1.5 | x
Cn1c(=O)c2cc(N)cnc2n(C)c1=O | 0.7 | x
CCOc1ncccc1C(=O)O | -0.45 | x
CN(C)c1ccc(/C=N/N)cc1 | 0.3 | 0.53
Cc1cccc(NC(=O)CCN2C(=O)/C(=C\c3ccccc3)SC2=S)c1 | 0.45 | -0.38
CCC(C)NCc1nc(N)nc(Nc2ccccc2C)n1 (stereo not given) | 0.15 | x
CCSc1nnc(NC(=O)CSc2nnc(Cc3cccn3C)n2-c2ccc(F)cc2)s1 | 0.25 | 1.3

# New compounds follow.
SMILES,AID504770,CapD inh
CCc1ccccc1N1C(=O)C2C(c3ccccc3)CCC(c3ccccc3)C2C1=O (stereo not given),x,-0.2
FC(F)(F)Oc1ccc(C2c3ccsc3CCN2Cc2ccc3c(c2)CCO3)cc1 (stereo not given),-0.05,0.61
CC12CC3(C)CC(CN)(C1)CC(CCN)(C2)C3,-0.9,0.64
O=C(Cn1ncn2c(cc3ccccc32)c1=O)NCc1ccccc1,-0.15,2.2
CC(C)(C)c1ccc(OCCCC(=O)Oc2ccc(-c3nnco3)cc2)cc1,0,x
CCOC(=O)c1c(NC(C)=O)nc(SC)n1Cc1cccs1,0.15,-0.14
O=S(=O)(NCc1csc(-c2ccccc2)n1)c1ccc(Cl)cc1,-0.3,0.44
O=C(Cc1c(Cl)cccc1Cl)NC1CCC(O)CC1 (stereo not given),-0.8,x
COC(=O)CC1C(=O)NCCN1C(=O)C1c2ccccc2Oc2ccccc21 (stereo not given),-0.1,x
Cc1ccc(CSCCNC(=O)CN(c2cc(C(F)(F)F)ccc2Cl)S(C)(=O)=O)cc1,x,-0.27
CC(Oc1ccccc1)C(=O)N/N=C/c1ccccc1 (stereo not given),-0.5,x
CCc1ccc(Nc2nc(C)cc(C)c2C(N)=O)cc1,-0.75,x
C=CCn1ccc2c(OCC(N)=O)cccc2c1=O,-2.4,x
COC(=O)c1c(C)[nH]c(=O)[nH]c1=S,-1.2,x
Nc1nc(Nc2ccccc2)n[nH]1,-0.5,0.06
CCOc1ccc(Br)cc1S(=O)(=O)N(C)C1CCCCC1,-0.25,x
Cc1cccc(N2C(=O)c3ccc(C(=O)Nc4ccccn4)cc3C2=O)c1,-1.1,-1.1
COc1cc2c(cc1OC)C1(CCCC1)CN=C2C,x,81
Cc1ccc2c(Cl)cc(Cl)c(OCC(=O)N(C)Cc3ccccc3)c2n1,0.9,0.91
O=C(c1ccco1)N1CCN(C(=O)C2CC(c3ccc(Cl)cc3)=NO2)CC1 (stereo not given),0.3,-0.43
CC1(C)CC(=O)C(=Cc2cn(-c3ccccc3)nc2-c2cccs2)C(=O)C1,-0.4,-0.17
COc1nc(-c2ccccc2)c2cc(C)ccc2n1,-0.3,52
COc1cc2[nH]c(=S)n(CCc3cnc[nH]3)c(=O)c2cc1OC,-0.85,-0.12
CCOC(=O)c1c(C)c2c(n1C)CCC/C2=N\O,-0.4,-0.34
Cc1cc(N2CCN(C3c4ccccc4-c4ccccc43)CC2)n2c(nc3ccccc32)c1C#N,x,0.4
Cc1cccnc1NC1CCCCC1,-0.25,3
Cc1cc(C)n(-c2nnc(C)n2/N=C/c2ccc(Cl)cc2Cl)n1,x,-0.85
CCN1CCN(C(=O)CNC(=O)Cn2cnc3c(c2=O)C2CCCCC2S3)CC1 (stereo not given),x,0.02
O=C(Nc1ccccc1)c1cccc(N2CCCC2=O)c1,-0.7,x
CCC(=O)N1CCc2cc(S(=O)(=O)CCC(=O)Nc3ccc(Cl)cc3)ccc21,0.15,0.62
COc1ccccc1N1CCN(Cc2ccc3ccccc3c2)CC1,x,-0.015
OCCN1CCN(Cn2nnc3ccccc32)CC1,x,-0.33
O=C(O)c1cc(-c2ccc(O)cc2)on1,-0.9,0.24
CCOc1ccccc1-n1c(SCc2cccc(F)c2)nc2[nH]ncc2c1=O,x,-0.17
O/N=C/c1nc2cc(Cl)ccc2o1,0.4,x
Cc1ccc(-c2csc(-c3cccnc3)n2)c(C)c1,0.05,3.3
Cc1nnc(NC(=O)CSc2nnc(CNC(=O)c3ccccc3F)n2C)s1,1.3,x
O=C(/C=C/c1ccc2c(c1)OCCCO2)N1CCN(C2CCS(=O)(=O)C2)CC1 (stereo not given),-0.45,x
CCOC(=O)c1c(NC(=S)Nc2ccc(OC)cc2)sc2c1CC(C(C)C)OC2 (stereo not given),2,2
COc1ccc(-n2c(SC)nnc2-c2ccc(OC)c(OC)c2)cc1,-0.95,-0.52
CCCCC1CCC(C(=O)Nc2c3c(nn2-c2ccc(F)cc2)CS(=O)(=O)C3)CC1 (stereo not given),1.2,-0.99
C=CCNC(=O)C1CC(=O)N(c2ccc(OCC(=O)NCc3ccccc3)cc2)C1 (stereo not given),-0.9,0.11
Cc1onc(-c2ccccc2)c1NC(=O)N(C)CCc1ccccn1,1.6,-1.5
COc1cc(/C=C2\C(=O)NC(=O)N(c3cc(C)cc(C)c3)C2=O)c([N+](=O)[O-])cc1OC,x,1.6
Cc1ccc(CN2CNc3c(-c4ccccc4F)c(C)nn3C2)cc1,0,0.16
CC1CCN(CC(O)Cn2c3ccccc3c3ccccc32)CC1 (stereo not given),1,7.5
COc1ccc(Nc2nc(=S)[nH]c3cc(OC)c(OC)cc23)cc1,-0.75,0.5
N=C1S/C(=C\c2ccc(N3CCOCC3)cc2)C(=O)N1c1ccc(Br)cc1,x,-0.53
CCOC(=O)c1c(C)noc1N,-1.8,-0.02
O=S(=O)(c1ccc(Cl)cc1Cl)N1CCN(Cc2ccc3ccccc3n2)CC1,x,0.77
Cc1sc(NC(=O)CN2CCN(c3ccccc3)CC2)c(C#N)c1C,1.4,-0.55
O=C(CSc1ccc2c(c1)OCCO2)NC1CCS(=O)(=O)C1 (stereo not given),0.1,x
COC(=O)c1ccc(C2Oc3c(OC)cccc3C3CC(c4ccc(OC)cc4)=NN32)cc1 (stereo not given),x,-0.77
CCN1C(=O)c2ccccc2S(=O)c2ccc(C(=O)N3CCCCC3)cc21 (stereo not given),2,-0.8
CN(C)c1ccc(/C=C2\CCCC3C2=NN(C(=S)NC(=O)c2ccco2)C3c2ccc(N(C)C)cc2)cc1 (stereo not given),2,x
CCOc1ccc(Nc2cccc(F)c2C#N)cc1,-0.8,x
CC(C)(C)NC(=S)NNc1c(Cl)cncc1Cl,1.4,0.41
Oc1ccc(Br)cc1C=NCc1cccnc1,0.75,-0.04
O=CC12c3ccccc3C(c3ccccc31)C1C(=O)N(c3ccc(Cl)cc3)C(=O)C12 (stereo not given),x,-0.32
COc1ccc(C)cc1-n1nnnc1SCC(=O)Nc1ccccc1C(=O)NC1CC1,0.55,x
# Next section
SMILES,AID504770,CapD inh
CC(NCC(O)Cn1c2ccccc2c2ccccc21)C(=O)O (stereo not given),0.2,4.2
Cc1ccc(C2=NN(CC(=O)N3CCCCC3)C(=O)CC2)cc1,1.1,-1.4
COc1ccc(CN(Cc2ccco2)S(=O)(=O)c2ccc(S(=O)(=O)N3CCCC3)cc2)cc1,0.2,x
CC[N+](CC)(CC)CCC(O)(c1ccccc1)C1CCCCC1 (stereo not given),x,1.3
CN(C)S(=O)(=O)c1ccc(C(=O)NCC(=O)NN)cc1,0.25,x
Cc1cccc(NC(=O)CNS(=O)(=O)c2ccc(Br)s2)c1,-0.85,0.3
O=C(O)CC1(CC(=O)Nc2cscc2S(=O)(=O)c2ccccc2)CCCCC1,-0.2,0.23
CC(C)c1nnc(NC(=O)c2ccccc2)s1,-0.9,x
CS(=O)(=O)NCCSc1cc(C(F)(F)F)nc2ccccc12,0.05,0.03
CN(N)C(=S)Nc1cc(Cl)ccc1Cl,x,-0.92
Clc1ccccc1-c1cc(-c2nnco2)c2ccccc2n1,0.8,2.9
CCCN1CCN(c2cc(-c3ccccc3)nc3cc(-c4cccc(F)c4)nn23)CC1,0.95,x
O=C(CSc1ncnc2c1oc1ccccc12)OCc1ccccc1,-0.25,-0.47
CCN1CCSc2ccc(C(=O)NCCCN3CCCCC3)cc21,-0.1,103
COCc1cc(N2CCOCC2)nc(SCc2ccc(Cl)cc2)n1,x,-0.39
Cc1c(Cl)ccc(S(=O)(=O)Nc2ccncc2)c1Cl,-0.65,-0.39
CC12CC3(C)CC(N)(C1)CC(C(=O)O)(C2)C3,-0.1,-0.49
N#C/C=C/N1CCN(C/C=C/c2ccccc2)CC1,1.2,x
Oc1ccc(Cl)cc1C1=Nc2ncnn2C(c2ccccc2)C1 (stereo not given),1.7,0.28
CCCC(=O)Nc1sc2c(c1C(=O)Nc1ccccc1)CCC2,x,-0.065
CC1CCN(C(=O)C23CC4CC(CC(C4)C2)C3)CC1,-0.5,-1
Cc1c(C(=O)N2CCC3(CC2)OCCO3)sc2ncnc(N(C)c3ccccc3)c12,-0.7,-0.35
O=c1[nH]snc1N1CCOCC1,-1.2,-1
Cc1ccc(-n2cc3ccccc3c2C#N)nc1,0.55,31
CCn1c(O)c(N=NC(N)=S)c2ccccc21,0.05,x
COc1ccc2c(c1)-c1c(ssc1=S)C(C)(C)N2C(=O)c1sc2ccccc2c1Cl,x,0.33
CCCc1[nH]n(-c2ccc([N+](=O)[O-])cc2)c(=O)c1C=NCc1ccc(OC)cc1,x,-1.7
CCOCCOC(=O)C1=C(C)NC2=C(C(=O)CC(C)(C)C2)C1c1ccc(OCc2ccccc2)c(OC)c1 (stereo not given),x,18
O=C(COC(=O)c1ccccc1C(=O)c1ccccc1)c1ccccc1,x,-0.48
C=CCNC(=S)N1N=C2c3ccccc3CCC2C1c1ccccc1Cl (stereo not given),0.15,-1.4
COc1ccc(C2=NN(C(=O)CCC(=O)O)C(c3ccccc3OC)C2)cc1OC (stereo not given),x,40
CN(C(=O)COC(=O)c1ccc(Cl)c(S(N)(=O)=O)c1)C1CCS(=O)(=O)C1 (stereo not given),-0.45,x
NC(=O)c1cc2c(n(-c3ccccc3)c1=O)CCCC2=O,-0.25,-0.99
O=C(NC(=O)c1ccccc1C(F)(F)F)NN1CCCCC1,-1.2,9.8
Cc1ccc(Sc2nn(C)c(=O)n(C)c2=O)cc1C,-0.75,x
CC(C)(O)C#Cc1ccc(C(=O)NCC(c2ccccc2)c2ccccc2)cc1,-0.05,0.46

# The closing three compounds of the section before lead into the next.
SMILES,AID504770,CapD inh
O=C(NC(=O)c1ccccc1C(F)(F)F)NN1CCCCC1,-1.2,9.8
Cc1ccc(Sc2nn(C)c(=O)n(C)c2=O)cc1C,-0.75,x
CC(C)(O)C#Cc1ccc(C(=O)NCC(c2ccccc2)c2ccccc2)cc1,-0.05,0.46
CO[C@@H]1O[C@H](COC(=O)c2ccccc2)[C@H](OC(=O)c2ccccc2)[C@H]1OC(=O)c1ccccc1,0.15,0.3
Cn1c2ccccc2c2nnc(SCC(=O)NC3=NN=C(c4ccccc4)CS3)nc21,0.15,-0.38
O=C(O)CSCc1nc2ccccc2c(=O)[nH]1,-0.35,x
COc1cccc(-c2cn3c4c(=O)n(C)c(=O)n(C)c4nc3n2Cc2ccccc2)c1,x,-0.15
COc1cccc(-c2nc3sc4c(c3c(=O)n2CC(=O)Nc2ccccc2Cl)CCCC4)c1,x,8.1
COC(=O)CSc1nc2ccccc2n1CC(=O)N1C(C)CCCC1C (stereo not given),-0.25,x
O=c1c2cc3ccccc3n2cnn1Cc1ccccc1F,0.65,21
COC(=O)c1ccccc1NC(=O)CCn1cccc1,1.6,42
O=C(CCn1c(=O)c2cccn2c2ccc(F)cc21)NCCc1cccs1,0.25,6
NC(=O)C1CCN(C(=O)c2ccc3c(=O)n(C4CCCCC4)c(SCC(=O)c4ccc(Cl)cc4)nc3c2)CC1,x,-0.29
O=C(NC(NCc1ccccn1)(C(F)(F)F)C(F)(F)F)c1cccnc1,-1.1,1.3
FC(F)(F)c1ccc(-c2nc(-c3ccccn3)ncc2-c2ccnc3ccccc23)cn1,x,-0.43
O=c1c2cccnc2ncn1CCCN1CCOCC1,0.5,-0.21
COc1ccc(NC(=O)NC(=O)C(F)(F)F)cc1,-0.85,0.095
O=C(COc1coc(CN2CCc3ccccc32)cc1=O)OCc1ccccc1,0.25,x

# Single values from above:
# In AID504770, O=S(=O)(NCc1csc(-c2ccccc2)n1)c1ccc(Cl)cc1 is entered as -0.3
# In CapD inh, Cc1cc(C)n(-c2nnc(C)n2/N=C/c2ccc(Cl)cc2Cl)n1 is entered as -0.85
# In CapD inh, CCC(=O)N1CCc2cc(S(=O)(=O)CCC(=O)Nc3ccc(Cl)cc3)ccc21 is entered as 0.62
# In AID504770, O=C(c1ccco1)N1CCN(C(=O)C2CC(c3ccc(Cl)cc3)=NO2)CC1 (stereo not given) is entered as 0.3
